# Compound activity from PubChem BioAssay.
# Vif TR-FRET: HIV-1 Vif–A3G interaction blockers – biochemical, TR-FRET, GST-Vif 1-94, biotin-A3G peptide, dose response retest, primary screen (AID 1117319); TR-FRET GST-Vif / biotin-A3G peptide binding; higher % means a stronger effect; test concentration not given here; strong numbers were not always called active; inhibition, %, or IC50 in µM where a hit was titrated; hit rate 0.57% among 260,000;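 active = above the screen mean plus three standard deviations and confirmed in dose response; inconclusive = results disagree or hit not tested in dose response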;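 also: Vif residues 1-94 fused to GST binding biotinylated APOBEC3G peptide 110-148; 0% = full assay without inhibitor and 100% = GST in place of GST-Vif; retest series ran down from 100 µM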
# MLL AF4-AF9 inh: MLL-AF4/AF9 protein interaction inhibition; hit rate 0.47% among 350,000; inhibition, % at 10 µM; AlphaScreen, biotin-AF4 peptide binding to FLAG-AF9; AID 651704; P42568;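 active = every replicate reaching a set inhibition limit, whatever the replicate mean, cut at about 25% in these data; inconclusive = mean inhibition reaches that limit but some replicates miss it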;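 also: 0% = plate neutral control median and 100% = total signal loss; the record names both 10 and 1 µM as test concentration; the first replicate is given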
# Target sequence (P42568 whole entry, looked up): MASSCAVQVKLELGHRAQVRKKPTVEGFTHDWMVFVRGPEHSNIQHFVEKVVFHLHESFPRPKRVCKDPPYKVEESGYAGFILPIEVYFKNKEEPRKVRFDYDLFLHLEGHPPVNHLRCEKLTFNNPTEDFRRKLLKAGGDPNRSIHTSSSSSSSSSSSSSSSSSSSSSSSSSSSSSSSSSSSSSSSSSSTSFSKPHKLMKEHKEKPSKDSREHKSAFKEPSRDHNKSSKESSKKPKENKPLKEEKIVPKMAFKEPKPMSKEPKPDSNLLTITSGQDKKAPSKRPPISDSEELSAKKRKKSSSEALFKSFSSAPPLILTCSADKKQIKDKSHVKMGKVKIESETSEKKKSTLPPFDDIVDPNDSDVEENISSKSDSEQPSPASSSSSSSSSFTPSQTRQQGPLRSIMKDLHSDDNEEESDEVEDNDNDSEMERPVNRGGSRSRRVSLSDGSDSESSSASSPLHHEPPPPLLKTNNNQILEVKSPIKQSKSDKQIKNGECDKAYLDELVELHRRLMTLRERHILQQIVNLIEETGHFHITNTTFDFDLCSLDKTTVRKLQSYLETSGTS
# Beta apoptosis: beta cell apoptosis inhibition; INS-1E cytokine-induced death, ATP luminescence, 48 h; percent of positive-control rescue, neutral wells zero; AID 435005; protection from apoptosis, % (concentration not given with the values); hit rate 0.8% among 300,000;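 active = all replicates at 75% or more, or half of them and the mean; inconclusive = half reach 75% but not the mean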;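 also: 0% = cytokine-treated negative control wells and 100% = positive control rescue; higher means more ATP so stronger rescue from cytokine killing; wells of about 40 µL received 100 nL stock; the first replicate is given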
# Calb FLC: affects C. albicans growth with fluconazole; C. albicans CaCi-2 (fluconazole-resistant clinical isolate) + fluconazole, Alamar Blue growth, 48 h; growth inhibition, % (no concentration beside the values); hit rate 0.57% among 300,000; AID 1979;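 active = most replicates above 75%; inconclusive = exactly half above 75%; inactive = most below 75%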;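 also: all wells also contain fluconazole at 8 µg/ml as a sub-toxic cotreatment; 0% = median of DMSO wells and 100% = median of geldanamycin control wells; wells of about 8 µL received 7.5 nL stock; the first replicate is given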
# A1 inh: inhibitors of the anti-apoptotic protein A1, read as caspase activation; AID 2462; caspase activation, % (concentration not given with the values); hit rate 0.066% among 330,000; MEF A1-2A-BIM cells, Caspase-Glo 3/7 luminescence, 3 h; percent of clofoctol response, vehicle zero;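 active = over half of replicate activation scores above 10%, or exactly half above 10 with the replicate mean above 10; inconclusive = replicate mean below 10 yet half the replicates above 10; inactive = over half of replicates below 10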;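 also: wells of about 30 µL received 50 nL stock; many hits fall short of the cut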
# RanGTP-Imp inh: disruptors of Ran-importin-beta complex formation – biochemical, FRET, CFP-Ran, YFP-importin-beta, homogeneous, primary screen; cell-free CFP-Ran/YFP-importin-beta FRET ratio; inhibition, % (concentration not given with the values); hit rate 1.1% among 300,000;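 active = most replicates above 15%; inconclusive = exactly half above 15%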;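 also: 0% = DMSO wells and 100% = Ran loaded with GDP instead of GTP; wells of about 40 µL received 100 nL stock; the first replicate is given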
# rRNA inh HTS: inhibitors of bacterial rRNA selective over humanized ribosomes; hit rate 1.6% among 350,000; GFP signal change (wild-type ribosome), % (no concentration beside the values); E. coli WT GFP vs humanized-ribosome RFP mutants, fluorescence, 24 h; active compounds read low; DMSO median 0, no signal -100;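 active = significant combined selectivity score with lowered wild-type GFP, culture density cut under 30%, mutant RFP and density less affected; inactive = any of these conditions unmet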; also: one replicate is shown; some compounds called inactive have numbers as strong as hits
# T cruzi inh: T. cruzi replication inhibition. hit rate 1.4% among 300,000. T. cruzi beta-gal in NIH3T3, luminescence, 90 h. inhibition, % (no concentration beside the values);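 active = mean inhibition across valid replicates above about 55%, limit read from the data; inconclusive = mean below that limit but half or more replicates reach it; inactive = mean below it, under half of replicates reach it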;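 also: signal also drops with host cell toxicity which is not excluded here; 0% = plate median of DMSO wells and 100% = zero luminescence signal; higher percent means less beta-gal luminescence so fewer parasites; stock transfer was 50 nL into about 50 µL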
# rRNA inh HTS OD600: second read-out of rRNA inh HTS, no call of its own (marks repeat the call); OD600 change, %; measured here: OD600 growth;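 optical density of the mix in the first replicate; 0 = DMSO median and -100 = no signal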
# rRNA inh HTS RFP: also measured in rRNA inh HTS; calls as there; RFP signal change, %; measured here: RFP humanized mutant strains;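 first replicate; 0 = DMSO median and -100 = no signal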
# An asterisk follows results filed as active; ? = inconclusive; / = no result given; & = joins results of further samples. Not all compounds are listed; the hit share may differ from the screen's.
SMILES,Vif TR-FRET,MLL AF4-AF9 inh,Beta apoptosis,Calb FLC,A1 inh,RanGTP-Imp inh,rRNA inh HTS,rRNA inh HTS OD600,rRNA inh HTS RFP,T cruzi inh
COCc1c(C(=O)N/N=C(/C)c2ccc(OCc3ccccc3)cc2)nnn1-c1nonc1N,/,1.7,-5.8,-2.2,0.5,5.7,-7.1,-1.0,0.3,6.4
C(=C\c1nnc(-c2cccs2)o1)/c1ccccc1,-4.8%,-49.9,3.9,-16.9,-5.2,4.8,-7.7,-9.3,-5.4,9.1
O=c1ccn(Cc2ccccc2Cl)cc1,-2.4%,/,-6.1,-3.5,0.5,-1.4,/,/,/,-1.2
COc1ccccc1CNC(=O)C(=O)NCC1OCCN1S(=O)(=O)c1ccc2c(c1)OCCO2 (stereo unspecified),6.0%,-7.2,-2.0,-2.2,-0.1,1.5,-0.6,-0.9,3.3,-5.2
CC(C)(C)n1nnnc1C(c1cccc(C#N)c1)N1CCCCCC1 (stereo unspecified),8.9%,/,-4.4,6.4,-0.4,0.3,/,/,/,-1.7
COCCN(C(=O)CSc1nnc(-c2cccc(C)c2)n1C)c1c(N)n(Cc2ccccc2)c(=O)[nH]c1=O,-13.1%,1.9,-2.4,112.7*,0.3,/,10.4,9.9,3.5,/
O=C(O)CN1C(=O)C(=O)N(Cc2cccc(F)c2)C1=O,-3.5%,1.6,-5.2,13.0,0.0,-2.9,2.3,4.1,-0.4,-10.2
Cc1ccc(NC(=O)CNC(=O)c2cccs2)nc1,0.6%,-0.6,2.4,-5.1,0.2,3.2,2.0,-0.5,0.3,-4.8
O=C1N(c2ccc(Cl)cc2)C(c2ccc(Cl)cc2)N2CCCN12 (stereo unspecified),/,2.2,-0.4,4.3,-0.5,4.7,/,/,/,10.0
CC(C)Cc1nnc(NC(=O)CN2C(=O)c3ccccc3C2=O)s1,-0.5%,-1.5,-0.5,7.9,0.3,2.8,16.0,11.6,4.9,-15.7
Cc1ccc(C(=O)N(Cc2nc3ccccc3c(=O)[nH]2)C2CCCC2)cc1,/,0.1,/,0.8,0.2,-0.4,-19.2,-26.6,0.5,2.2
O=C(c1ccc(N2CCCC2=O)cc1)N1CCOCC1,2.2%,/,-5.3,0.7,-0.3,-0.3,/,/,/,-5.4
CCc1ccc(C(=O)NN(C(=O)c2ccc(CC)cc2)C(C)(C)C)cc1,-11.7%,10.2,2.0,-15.4,0.3,-0.5,3.5,8.8,1.8,12.1
CCN1CCN(Cc2ccc(NC(=O)c3ccc(C)c(NC(=O)c4ccno4)c3)cc2C(F)(F)F)CC1,/,5.6,-2.0,-8.8,0.2,-1.2,8.0,9.3,6.9,38.1
O=C(Nc1ccc(F)cc1)C1CCN(C(=O)NCc2ccccc2)CC1,/,-1.3,4.7,7.2,0.7,2.3,4.7,9.4,-1.1,1.6
O=C(Nn1c(SCc2cccc([N+](=O)[O-])c2)nc2ccccc2c1=O)c1ccccc1,/,/,-6.8,1.4,0.2,2.8,/,/,/,6.6
COc1ccc(OCCCN2CCCCCC2)cc1,10.9%,/,8.8,-21.4,0.6,1.3,/,/,/,18.6
Cc1cc(=O)oc2c3c(cc(OCC(=O)Nc4cccnc4)c12)OC(C)(C)CC3,/,0.2,12.0,-4.6,-1.0,-0.3,/,/,/,5.3
CC(NC(=O)c1ccncc1)c1ccccc1 (stereo unspecified),/,-0.5,-3.9,-3.8,0.2,0.9,7.8,5.4,0.3,-6.6
O=C(NCCCCc1ccccc1)C1CC(c2ccccc2[N+](=O)[O-])=NO1 (stereo unspecified),4.2%,-29.4,-4.6,-29.1,0.3,4.0,-36.5,-38.0,-12.1,5.0
O=C(CCC(=O)N1CCOCC1)c1ccc(F)cc1,-5.7%,-1.0,-5.6,-4.0,0.0,-1.1,16.4,7.3,0.2,-12.2
Cc1ccc(N(C(C)C(=O)Nc2cc(Cl)ccc2Oc2ccccc2)S(C)(=O)=O)cc1 (stereo unspecified),2.4%,4.5,29.9,-10.6,0.3,0.8,6.9,-26.7,-0.8,40.1
CS(=O)(=O)c1ccc(Cl)c(NC(=O)CSC(=S)N2CCCC2)c1,-3.0%,0.2,3.7,30.6,1.5,3.4,25.9,20.9,3.5,-9.7
COc1ccc(Cl)cc1NC(=O)N1CCN(C2CCCCC2)CC1,1.3%,0.5,-1.2,-15.6,0.7,3.6,3.1,-1.6,-7.0,-3.7
COc1ccccc1NC(=O)CN1CCC(C(=O)c2ccc(F)cc2)CC1,-5.7%,/,4.6,31.9,1.4,-2.4,/,/,/,5.5
Cc1cc(C(=O)COC(=O)CN(C)S(=O)(=O)c2ccc(Cl)cc2)c(C)n1Cc1cccs1,4.9%,/,-11.0,9.0,-0.2,-1.3,/,/,/,-6.8
COc1ccc(CNC(=O)CN(c2ccccc2)S(=O)(=O)N(C)C)cc1,23.7%,-0.8,-4.5,-17.2,0.8,-0.5,0.2,6.5,1.2,2.1
CCN(CC(=O)NCc1ccc(Cl)cc1)C(=O)CSc1ccc(Br)cc1,/,-0.4,3.9,6.8,0.7,-4.3,-64.8,-80.9,-21.3,4.0
CCC(CO)NCc1ccc(OCC(O)c2ccccc2)c(OC)c1 (stereo unspecified),-5.9%,-9.1,9.6,-2.0,1.0,-3.9,0.6,4.1,-0.3,-9.2
FC(F)(F)c1cc(CCN2CCNC[C@@H]2Cc2ccccc2)cc(C(F)(F)F)c1,/,27.2*,18.2,1.8,-0.5,-2.3,-55.2,-82.6,-23.0,38.1
CCOC(=O)c1csc(NC(C)=O)n1,/,-3.1,-2.9,-12.3,-0.2,1.3,9.6,-7.4,-6.7,11.8
Cn1c(Cc2ccccc2)nnc1SCC(=O)NC1CCCCC1,20.1%,/,-3.4,5.6,0.2,4.1,5.9,2.0,0.1,10.4
Cn1c(=O)c2c(ncn2CC(=O)OCC(=O)Nc2ccccc2Cl)n(C)c1=O,/,/,-6.4,15.0,0.2,-1.3,/,/,/,-5.2
CCCCC(=O)NC(c1ccccc1)c1ccc2cccnc2c1O (stereo unspecified),4.2%,5.2,99.1*,89.1*,1.9,2.2,8.7,-1.6,2.8,57.3*
Cc1ccc(-c2noc(CN(C)C(=O)c3ccoc3C)n2)cc1,/,5.2,-3.1,-0.2,-0.1,-1.8,1.7,-4.4,-4.7,2.6
CCc1nnc(SCC(=O)NC2CC2)n1CC,/,-1.3,-3.5,-7.9,1.2,-1.4,14.2,5.5,-0.4,-8.6
COC(=O)c1ccc(C2C(C(=O)c3cc4ccccc4o3)=C(O)C(=O)N2CCCN(C)C)cc1 (stereo unspecified),19.8%&6.4%,/,-9.7,1.6,0.0,-1.5,/,/,/,-1.7
COC(=O)CCCNC(=O)OCc1ccc([N+](=O)[O-])cc1,9.0%,/,-3.1,-1.9,1.4,-12.4,/,/,/,-3.6
CCOc1ccc(S(=O)(=O)N(CC)CC)cc1NC(=O)c1ccc(N2CCCC2=O)cc1,/,-0.1,1.9,-0.8,-1.0,2.2,14.4,14.2,0.4,33.6
O=CN1CCN(C(=S)NC(=O)c2ccc(Cl)cc2)CC1,-10.1%,0.1,/,6.6,/,-0.4,5.8,12.6,-1.3,-8.5
COc1cc(Br)cc2cc(C(=O)NCC3CCCO3)c(=O)oc12 (stereo unspecified),-4.5%,/,0.4,-26.1,0.3,-1.5,/,/,/,-8.5
O=C(O)Cc1ccc(C(=O)c2ccccc2F)s1,-1.6%,/,0.3,0.1,0.1,?,/,/,/,-9.9
Cc1ccc(C(=O)C(OC(=O)CNC(=O)c2ccc(Cl)cc2)c2ccccc2)cc1 (stereo unspecified),4.9%,/,1.8,8.2,0.6,-1.7,/,/,/,-22.5
CCC1CCC(NC(=O)Nc2cccc(OC)c2)CC1 (stereo unspecified),-1.2%,/,2.5,-8.9,-0.6,-0.2,/,/,/,9.1
Cc1nn(Cc2cccc(C(=O)NCC(C)C)c2)c(C)c1Br,-4.2%,/,/,3.3,-0.3,-10.2,/,/,/,21.1
Cc1cccc(C)c1NC(=O)Cn1c(=O)n(CCCC(=O)NCc2ccco2)c(=O)c2sccc21,66.6%&-11.5%,/,-5.3,23.1,0.2,?,/,/,/,-3.6
